# MLL AF4-AF9 inh = blocks AF4 peptide binding to human AF9; AID 651704; AlphaScreen, biotin-AF4 peptide binding to FLAG-AF9; hit rate 0.47% among 350,000; inhibition, % at 10 µM;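 active means every replicate reaching a set inhibition limit, whatever the replicate mean, cut at about 25% in these data; inconclusive means mean inhibition reaches that limit but some replicates miss it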;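 further: 0% = plate neutral control median and 100% = total signal loss; the record names both 10 and 1 µM as test concentration; the first replicate is given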
# Target sequence (P42568 whole entry, looked up): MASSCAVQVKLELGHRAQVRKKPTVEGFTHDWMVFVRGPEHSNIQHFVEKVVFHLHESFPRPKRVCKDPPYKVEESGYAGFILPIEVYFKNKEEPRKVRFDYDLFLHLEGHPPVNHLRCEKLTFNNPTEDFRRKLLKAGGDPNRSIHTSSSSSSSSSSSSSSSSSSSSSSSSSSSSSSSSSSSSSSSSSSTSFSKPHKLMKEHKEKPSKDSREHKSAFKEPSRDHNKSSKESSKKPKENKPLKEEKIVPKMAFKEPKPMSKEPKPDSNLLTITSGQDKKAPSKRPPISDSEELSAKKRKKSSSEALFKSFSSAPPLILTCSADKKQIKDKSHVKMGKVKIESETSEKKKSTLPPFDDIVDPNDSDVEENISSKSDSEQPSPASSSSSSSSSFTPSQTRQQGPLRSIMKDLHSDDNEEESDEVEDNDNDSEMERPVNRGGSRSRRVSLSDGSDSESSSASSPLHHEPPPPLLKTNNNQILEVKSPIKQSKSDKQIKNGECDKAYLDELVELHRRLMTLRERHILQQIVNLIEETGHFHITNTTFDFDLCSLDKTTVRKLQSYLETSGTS
# Ecoli growth = E. coli growth inhibition | OD600 absorbance (test concentration not listed) | Escherichia coli growth, OD600, 23 h; active compounds read low | AID 1053175 | hit rate 0.21% among 330,000;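 active means OD600 absorbance below the run mean of sample wells minus 3.6 SD, in any replicate, cut at about 0.56 in these data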;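 further: stock transfer was 300 nL into about 60 µL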
# RanGTP-Impb inh = inhibitors of RanGTP-importin-beta interaction, primary screen, biochemical, FRET, CFP-Ran, YFP-importin-beta, homogeneous | cell-free CFP-Ran/YFP-importin-beta FRET ratio | inhibition, % (concentration not given with the values) | hit rate 1.1% among 300,000 | AID 2216;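 active means most replicates above 15%; inconclusive means exactly half above 15%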;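 further: 0% = DMSO wells and 100% = Ran loaded with GDP instead of GTP; wells of about 40 µL received 100 nL stock; the first replicate is given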
# FGF22 binding = shifts melting point of recombinant human FGF22. recombinant FGF22 thermal shift, SYPRO orange fluorescence; percent of sucrose octasulfate shift, DMSO zero. calls only at 9.99 µM. hit rate 1.5% among 340,000;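 active means melting point raised past a set limit in the mean and every replicate; inconclusive means no clear call; three in four hits are not shown here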
# Vif TR-FRET = inhibitors of Vif binding to APOBEC3G peptide, primary screen, biochemical, TR-FRET, GST-Vif 1-94, biotin-A3G peptide, dose response retest (AID 1117319) | inhibition, %, or IC50 in µM where a hit was titrated | hit rate 0.57% among 260,000 | TR-FRET GST-Vif / biotin-A3G peptide binding; higher % means a stronger effect; test concentration not given here; strong numbers were not always called active;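 active means above the screen mean plus three standard deviations and confirmed in dose response; inconclusive means results disagree or hit not tested in dose response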;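 further: Vif residues 1-94 fused to GST binding biotinylated APOBEC3G peptide 110-148; 0% = full assay without inhibitor and 100% = GST in place of GST-Vif; retest series ran down from 100 µM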
# HNF4A DNA FP = change in binding of human HNF4 alpha to DNA | P41235 | HNF4a-FITC DNA binding, fluorescence polarization, 1 h | activity change, % at 10 µM | hit rate 0.3% among 360,000 | AID 1224865; in the data active means activity change above about 30%, passing the limit was not always enough;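 further: controls were the assay level and a saturating level of protein; the project sought stronger binding though the title names inhibitors; some compounds called inactive have numbers as strong as hits; positive values seem to mean higher polarization but the record does not say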
# Target sequence (P41235 whole entry, looked up): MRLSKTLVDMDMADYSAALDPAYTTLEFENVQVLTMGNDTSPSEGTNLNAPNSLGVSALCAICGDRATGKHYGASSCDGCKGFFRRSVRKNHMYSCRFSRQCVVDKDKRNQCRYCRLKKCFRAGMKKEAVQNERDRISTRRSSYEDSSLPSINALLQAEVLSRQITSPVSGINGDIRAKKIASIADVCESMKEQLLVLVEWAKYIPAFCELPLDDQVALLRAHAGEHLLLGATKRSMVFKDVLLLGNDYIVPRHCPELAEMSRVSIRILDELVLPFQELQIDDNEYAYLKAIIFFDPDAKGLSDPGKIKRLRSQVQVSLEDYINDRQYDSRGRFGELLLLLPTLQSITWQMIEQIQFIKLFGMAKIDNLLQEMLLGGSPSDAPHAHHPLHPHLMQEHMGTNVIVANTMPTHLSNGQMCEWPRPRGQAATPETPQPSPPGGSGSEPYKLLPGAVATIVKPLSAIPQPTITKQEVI
# UCH37 inh = human UCH37 deubiquitinating enzyme inhibition; inhibition, % (no concentration beside the values); purified proteasome/UCH37, Ub-AMC cleavage fluorescence; hit rate 0.33% among 330,000; AID 588478;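 active means mean of two replicates above 20%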;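 further: 0% = compound-free wells with enzyme and 100% = wells lacking proteasome; stock transfer was 100 nL into about 20 µL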
#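 Material: Human UCH37 enzyme supplied as purified proteasome complex | Schedule: 30 min compound-proteasome preincubation then 25 min substrate reaction, room temperature | Detection: AMC fluorescence from Ub-AMC cleavage, excitation 355 nm, emission 460 nm | Benchmarks: Wells without proteasome as full block, compound-free enzyme plus substrate as uninhibited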
# The depositor's hits bear a star; i = inactive; ? = inconclusive; . = no result given. A portion of the library; rates above refer to the full screens.
SMILES,MLL AF4-AF9 inh,Ecoli growth,RanGTP-Impb inh,FGF22 binding,Vif TR-FRET,HNF4A DNA FP,UCH37 inh
CC(=O)c1ccc(Nc2nc(C(C)N)cs2)cc1 (stereo not drawn),0.4,.,.,i,.,-0.9,.
O=C(c1cccs1)N1C[C@@H](O)[C@H](n2cc(C3CC3)nn2)C[C@@H]1c1ccc(Cl)cc1,1.2,.,.,i,.,0.1,.
CCCCN(C/C=C/c1ccccc1OC)Cc1ccccc1,8.1,0.634,?,i,.,0.6,-2.1
CCCCCCC1CC(C)(/C(C)=N/NC(N)=O)OC1=O (stereo not drawn),1.2,.,8.9,i,3.2%,-1.8,.
O=S(=O)(NCCN1CCOCC1)c1cc(Cl)ccc1Cl,-7.6,0.663,0.4,i,.,0.7,-0.1
Cc1n[nH]c(=O)c2c(NC(=O)COC(=O)Cc3c(F)cccc3Cl)oc(C)c12,-11.3,0.713,0.4,i,-7.6%,-1.8,4.2
COc1ccc(C(=O)Nc2nc(N3C(=O)c4ccccc4C3=O)n(-c3ccccc3)n2)cc1,.,0.694,2.9,.,-6.2%,-1.0,2.1
C=CCn1c(=S)[nH]c2scc(-c3ccco3)c2c1=O,1.4,0.671,.,i,?,-56.5,8.4
CN1CCc2c(OCC(=O)NC3CCCCC3)cccc2C1=O,-1.3,0.659,-3.4,i,.,-3.8,1.9
N#C/C(=C\c1cccnc1)C(=O)NC1CCCCC1,.,0.702,-0.5,.,-4.6%,-2.7,6.4
CC(C)(C)c1cc(Cl)ccc1OCCOCCN1CCCC1,9.9,0.628,1.2,i,6.0%,4.2,3.5
Cc1ccc(CNC(=O)C2CCCCN2S(=O)(=O)c2ccccc2)cc1 (stereo not drawn),6.6,0.674,-0.1,i,.,1.1,0.3
CCCNC(=O)[C@H](C)NC(=O)c1ccc(Br)cc1,-0.5,0.696,2.3,i,-12.4%,4.0,0.4
COc1ccccc1N1CCN(S(=O)(=O)c2ccc([N+](=O)[O-])cc2)CC1,14.8,.,.,i,.,-0.2,.
COc1ccc(CCNC(=O)C(=O)NCC2OCCN2S(=O)(=O)c2ccc(C)cc2)cc1OC (stereo not drawn),8.4,0.747,2.6,i,.,-1.6,3.6
CCN(CC1COc2ccccc2O1)C(=O)c1ccc(Cl)c(S(=O)(=O)N2CC(C)OC(C)C2)c1 (stereo not drawn),-2.8,0.648,1.2,i,-1.5%,1.9,0.6
CN(CC(=O)Nc1ncn[nH]1)S(=O)(=O)c1ccc(Cl)cc1,?,0.7,-0.1,i,.,-2.5,3.1
CC(C)C[C@H](NC(=O)N1CCn2c1nc1ccccc12)C(=O)NCC1CCCO1 (stereo partly drawn),-3.2,0.701,20.7*,i,-14.1%,3.0,-1.2
C=CCN1C(=O)c2ccc(C(=O)N(C)CC(=O)Nc3ccccc3Cl)cc2C1=O,-0.5,0.692,0.6,i,3.1%,-0.1,4.0
CC(C)CN(C(=O)CN1CCc2ccccc21)c1c(N)n(CC(C)C)c(=O)[nH]c1=O,-0.6,0.677,8.2,i,-3.9%,32.2*,-3.0
CCOC(=O)N1CCN(C(=O)CSc2ncccn2)CC1,.,0.66,-0.6,.,26.0%,-1.8,5.1
CC(O)CNCCCCOc1ccc(OCc2ccccc2)cc1 (stereo not drawn),8.7,0.683,0.1,.,.,-0.6,-0.1
CCOC(=O)c1nnn(CC(=O)NC(=O)Nc2cccc(CC)c2)c1C(=O)OCC,-27.5,0.662,5.3,i,3.3%,0.0,3.7
CCNc1nc(NCC)n2c(SC(C(=O)Nc3cc(C)ccc3OC)c3ccccc3)nnc2n1 (stereo not drawn),3.2,0.714,1.6,i,8.9%,3.0,4.6
CC1(N=Cc2cc(Cl)ccc2O)COP(=O)(NC2CCCC2)OC1 (stereo not drawn),-5.1,.,.,i,-1.3%,-1.4,.
CC(C)[C@@H](CO)NC(=O)[C@H]1O[C@@H](n2cnc3c(N)ncnc32)[C@H](O)[C@@H]1O,-1.7,.,.,i,.,-1.8,.
Cc1cccn2c(=O)c3cc(C(=O)NCCCOC(C)C)sc3nc12,4.9,0.689,-1.1,i,-6.6%,0.4,i
COc1cccc(C2=CC(=O)CC(c3ccco3)C2)c1 (stereo not drawn),-2.3,0.688,-1.5,i,.,2.9,-1.1
CC1CCCN(CC(O)COc2ccc3c(c2)OCO3)C1 (stereo not drawn),-0.2,0.689,-1.4,i,.,2.2,3.8
COCCNC(=O)/C(C#N)=C/C=C/c1ccccc1[N+](=O)[O-],0.8,0.699,1.9,i,1.8%,14.9,-79.3
O=C(c1c(Cl)cccc1Cl)N1CCN(c2ccccn2)CC1,.,0.678,5.2,.,3.3%,1.6,0.6
Cc1onc(-c2ccccc2)c1C(=O)N/N=C/c1cc(Br)c(O)c(Br)c1,-0.5,.,5.2,.,.,-0.7,.
COc1ccc(CCNC(=O)C(=O)NCc2ccc(C(C)C)cc2)cc1OC,.,0.688,-1.0,.,-0.2%,-2.9,-0.1
CCn1nc(C(=O)OCC(=O)Nc2nc(-c3ccc(OC)cc3)cs2)c2ccccc2c1=O,-1.6,0.737,0.2,i,.,4.5,3.4
O=C(COc1cccc2ccccc12)N/N=C/c1ccc(Sc2nc3ccccc3s2)o1,.,.,3.6,.,-2.6%,10.2,.
CCc1cccc(OCC(=O)Nc2ccc(C(=O)O)cc2NC(=O)COc2cccc(CC)c2)c1,-11.5,0.659,.,i,1.9%,-9.5,2.2
CCc1ccc(C2=Nn3c(nnc3-c3cccs3)SC2)cc1,.,0.695,-2.3,.,2.2%,1.6,3.6
CS(=O)(=O)Nc1cccc(S(=O)(=O)N2CCN(C(=O)c3ccccc3)CC2)c1,0.0,0.692,-3.6,i,14.9%,-2.6,2.1
CCc1sc(C(=O)N2CCc3ccccc32)cc1C,-3.4,0.718,-3.3,i,5.5%,-3.7,4.8
C#CCOCCOCCOCCNc1nc(N2CCN(C(=O)[C@H](CCCCN)n3cc(CC(C)O)nn3)CC2)nc(N2CCN(C(=O)[C@H](CCCCN)n3cc(CC(C)O)nn3)CC2)n1 (stereo partly drawn),-2.5,0.773,.,i,.,3.5,-3.9

# Exported tab-delimited: entries from further up.
compound	MLL AF4-AF9 inh	Ecoli growth	RanGTP-Impb inh	FGF22 binding	Vif TR-FRET	HNF4A DNA FP	UCH37 inh
CCn1nc(C(=O)OCC(=O)Nc2nc(-c3ccc(OC)cc3)cs2)c2ccccc2c1=O	-1.6	0.737	0.2	i	.	4.5	3.4
Cc1onc(-c2ccccc2)c1C(=O)N/N=C/c1cc(Br)c(O)c(Br)c1	-0.5	.	5.2	.	.	-0.7	.
CC(O)CNCCCCOc1ccc(OCc2ccccc2)cc1 (stereo not drawn)	8.7	0.683	0.1	.	.	-0.6	-0.1
CCOC(=O)N1CCN(C(=O)CSc2ncccn2)CC1	.	0.66	-0.6	.	26.0%	-1.8	5.1
CCOC(=O)c1nnn(CC(=O)NC(=O)Nc2cccc(CC)c2)c1C(=O)OCC	-27.5	0.662	5.3	i	3.3%	0.0	3.7

# The list goes on.
SMILES,MLL AF4-AF9 inh,Ecoli growth,RanGTP-Impb inh,FGF22 binding,Vif TR-FRET,HNF4A DNA FP,UCH37 inh
O=C(NCc1ccc(F)cc1)C1CCN(S(=O)(=O)N2CCCCC2)CC1,6.0,0.681,4.6,i,8.7%,-2.4,1.2
O=C(Oc1ccc(N(Cc2cccs2)C2=NS(=O)(=O)c3ccccc32)cc1)c1ccc(Cl)cc1,.,0.77,5.5,.,?,-6.7,-2.8
CN(Cc1ccccc1)Cc1cc(=O)oc2ccc3ccccc3c12,2.3,.,.,i,.,-1.9,.
CCc1nn(C(C)C(=O)N2CC(C)CC(C)C2)c(=O)c2cc3occc3n12 (stereo not drawn),3.5,0.675,-0.3,i,.,2.3,-1.5
O=C(c1cccc(F)c1)N1CCN(C(=O)c2nn3cccnc3c2Cl)CC1,.,0.76,2.0,.,-4.3%,-0.7,3.1
O=C(CCN1CCN(Cc2ccccc2)CC1)Nc1cccc(Cl)c1,.,0.701,1.9,.,7.5%,1.3,5.0
Clc1ccc2c(c1)C1OCCC1C(c1ccco1)N2 (stereo not drawn),.,0.769,0.2,.,7.1%,0.1,-189.2
CC1CCCCN1c1nnc(NC(=O)Cn2c(=O)oc3ccccc32)s1 (stereo not drawn),-2.8,0.753,?,i,-2.2%,-0.9,7.9
C[C@@H]1CC=C[C@H]2[C@H]1C(=O)N(Cc1ccccc1)[C@H]2c1cccc([N+](=O)[O-])c1,9.9,.,-0.8,i,.,-1.9,0.1
COc1ccccc1CNC(=O)[C@H](CCSC)NC(=O)[C@@H]1Cc2ccccc2CN1,1.7,0.734,1.3,i,.,0.9,0.6
Cc1cccc(C)c1-n1nnnc1C(c1ccccc1)N1CCN(C/C=C/c2ccccc2)CC1 (stereo not drawn),8.6,.,.,i,.,-1.3,.
CC(NC(=O)CCCCCN1C(=O)c2ccccc2C1=O)c1ccc2c(c1)CCCC2 (stereo not drawn),7.1,0.718,7.2,i,4.6%,-2.1,4.6
O=C(Cc1ccc([N+](=O)[O-])cc1)Nc1ccc2c(c1)CCC2,-1.8,0.712,-2.2,i,.,-1.8,3.9
COc1ccc(CCNC(=O)COC(=O)Cc2ccc(OC)cc2)cc1,.,0.662,-0.3,.,.,-4.9,-0.9
O=C(CCSCc1ccccc1Cl)NCc1cccs1,-2.0,0.685,3.9,.,-5.7%,-4.3,1.7
Cc1cccc(NC(=O)Nc2ccc(OCc3ccccc3)cc2)n1,-2.5,0.696,3.3,i,-4.3%,1.3,5.2
Cn1c(=O)oc2cc(S(=O)(=O)N3CCC(C(=O)N4CCN(c5ccccc5)CC4)CC3)ccc21,-0.8,0.709,.,i,-5.7%,-3.6,1.3
Clc1ccc(-c2nnc(Sc3nc4ccccc4o3)c3ccccc23)cc1,3.4,0.675,-4.5,i,-3.7%,-2.3,5.9
O=C1/C(=C/c2ccccn2)COc2ccccc21,-0.1,0.645,-2.1,i,.,-1.7,4.6
CSc1nsc(SCC(=O)N2CCCc3ccccc32)n1,.,0.788,4.8,.,-1.8%,1.9,-2.4
COc1ccc(C(=O)OCC(=O)NCc2ccco2)cc1S(=O)(=O)N1CCN(c2cccc(Cl)c2)CC1,.,0.742,3.5,.,0.9%,-0.2,5.7
CC(=O)Nc1sc(C)c(C)c1C(=O)OCC(=O)N(CC(C)C)C1CCS(=O)(=O)C1 (stereo not drawn),.,0.715,1.7,.,-3.6%,-2.8,-0.6
O=C(CNC(=O)c1ccccc1F)Nc1ccccc1C(F)(F)F,-0.4,0.719,-0.6,i,6.7%,0.8,1.2
CN(C)CCCNC(=O)C[C@H]1C[C@H](C(=O)N2CCCCC2)[C@@]2(CCc3ccccc3)c3[nH]c4cc(CCC(=O)N(C)C)ccc4c3CCN2C1=O,2.8,0.672,.,i,1.4%,1.5,-0.1
CCOc1ccc(N2CC(C(=O)Nc3ccc(S(=O)(=O)Nc4nccs4)cc3)CC2=O)cc1 (stereo not drawn),3.3,0.712,-2.4,i,.,0.2,1.1
CCCC(=O)N1CCC1(C)C(=O)NS(=O)(=O)c1ccc(Cl)cc1 (stereo not drawn),-3.9,.,.,i,.,0.1,.
Cc1[nH]nc2c1C(Cc1ccccc1)C(C#N)=C(N)O2 (stereo not drawn),.,0.668,-3.3,.,-2.5%,0.7,0.9
Cc1[nH]c(C)c(S(=O)(=O)N2CCN(c3cccc(Cl)c3)CC2)c1C(=O)N1CCCCC1,-0.2,0.701,2.6,i,.,1.4,3.2
N#Cc1c(-c2ccncc2)cc(-c2ccc(F)cc2)nc1N,-1.5,0.665,1.0,i,-31.6%,-9.2,i
COc1ccc(CN2CCSCC2)c(C)c1C,1.1,0.607,3.1,i,-1.9%,-2.0,2.5
